Rce1 inhib – inhibitors of yeast Ras-converting enzyme | Q03530 | yeast membranes, quenched prenylated peptide cleavage fluorescence | 290,000 tested, 0.27% active | calls only;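 active means fall in fluorescence gain of 50% or more versus controls, with final raw signal at or below 3038400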;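 further: plate controls were neutral control wells for no effect and wells lacking membranes for full effect; tested at 10 µM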
PABP FP inh – blocks human PABP binding to poly(A) RNA | inhibition, % at 35 µM | fluorescence polarization | P11940 | 290,000 tested, 1% active | AID 2014;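 active means 50% or more with normal probe brightness, or confirmed in later tests; about a fifth of its hits are not listed in these tables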;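 further: calls also rest on retests at 20 µM and on dose response follow-up; controls were probe without protein and protein plus probe with vehicle; some compounds called inactive have numbers as strong as hits; many hits fall short of the cut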
Target sequence (P11940 whole entry, looked up): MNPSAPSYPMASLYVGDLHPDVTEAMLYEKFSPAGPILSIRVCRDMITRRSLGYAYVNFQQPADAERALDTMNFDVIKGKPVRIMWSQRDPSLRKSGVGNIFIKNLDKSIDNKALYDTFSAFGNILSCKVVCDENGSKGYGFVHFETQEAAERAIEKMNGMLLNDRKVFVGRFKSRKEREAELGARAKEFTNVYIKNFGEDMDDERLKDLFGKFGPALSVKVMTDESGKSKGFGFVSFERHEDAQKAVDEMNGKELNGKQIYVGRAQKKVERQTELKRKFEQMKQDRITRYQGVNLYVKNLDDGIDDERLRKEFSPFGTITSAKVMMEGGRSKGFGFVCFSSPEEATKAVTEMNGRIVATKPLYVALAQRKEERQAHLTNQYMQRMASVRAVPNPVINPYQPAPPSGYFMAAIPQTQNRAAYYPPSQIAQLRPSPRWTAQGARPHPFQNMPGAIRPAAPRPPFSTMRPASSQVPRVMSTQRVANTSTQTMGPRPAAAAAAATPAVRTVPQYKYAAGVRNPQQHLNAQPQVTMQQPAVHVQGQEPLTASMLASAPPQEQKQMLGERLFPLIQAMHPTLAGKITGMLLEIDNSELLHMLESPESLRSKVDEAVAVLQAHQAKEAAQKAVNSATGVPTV
CSC inhib – blocks cancer stem cells; cancer stem cell-like cells viability, luminescence; inhibition, % at 7.5 µM; 300,000 tested, 1.1% active;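 active means mean at 75% or more and at least half the replicates too; tested in HMLE shEcad cells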;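 further: 0% = median of negative and 100% = median of positive control wells; the first replicate is given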
Env fusion inh – inhibitors of HIV Env-mediated cell fusion. HeLa-JRFL Env/CEM21 cell fusion, luciferase. inhibition, % at 12.3 µM. 360,000 tested, 1.1% active. AID 651610;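 active means mean replicate inhibition score of at least 50 and every replicate individually at or above 50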;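 further: 0% = plate neutral controls and 100% = maraviroc near 300 nM; one replicate is shown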
eIF4H FP inh – inhibitors of RNA binding by human eIF4H; inhibition, % at 35 µM; 290,000 tested, 0.94% active; AID 2012; eIF4H fluorescence polarization binding assay;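 active means 50% or more with normal probe brightness, or confirmed in later tests; about a fifth of its hits are not listed in these tables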;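 further: calls also rest on retests at 20 µM and on dose response follow-up; 0% = protein and probe with vehicle and 100% = probe without protein; strong numbers were not always called active; many hits fall short of the cut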
MT1-MMP act inh – inhibitors of human MT1-MMP activation | P50281 | HT1080 RFP-PRO-GFP cells, GFP/RFP ratio fluorescence, overnight; percent of plate control window, DMSO zero | GFP/RFP ratio change, % at 20 µM | 360,000 tested, 0.061% active;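 active means GFP/RFP ratio change of at least 30% with cell ATP level not reduced by more than half and red fluorescence within 50% of control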; further: strong numbers were not always called active
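Read-out: GFP/RFP fluorescence ratio; Test system: RFP-PRO-GFP reporter HT1080 cells; Compound dosing: single-point 20 µM compound, 1% DMSO; Times: overnight compound exposure at 37 °C.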
UUG fidelity – alters start codon recognition fidelity in yeast | S. cerevisiae UUG-firefly luciferase reporter, luminescence/redox ratio | activity score, % at 18.7 µM | 350,000 tested, 0.13% active | AID 602363;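 active means replicate mean at a twofold rise or more, about +100% in these data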;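 further: firefly luciferase made from a UUG start codon reports start codon fidelity; reporter light over untreated wells divided by growth signal over untreated wells; some hits fall short of that in this replicate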
MT1-MMP act inh RFP – further read-out of MT1-MMP act inh, marked with its call; RFP signal change, %; measured here: RFP expression control read;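 0 = vehicle wells; hits needed this value within 50% of zero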
An asterisk follows results filed as active; i = inactive; / = not tested or not shown.

SMILES | Rce1 inhib | PABP FP inh | CSC inhib | Env fusion inh | eIF4H FP inh | MT1-MMP act inh | MT1-MMP act inh RFP | UUG fidelity
Cc1ccc(/C=N/NC(=O)c2ccc(C(=O)N/N=C/c3ccc(C)s3)o2)s1 | i | 6 | -13 | 1 | -11 | -10 | 1 | -17
Cc1ccsc1C(=O)OCc1csc(-c2ccccc2)n1 | i | -2 | -7 | / | -7 | -4 | -2 | -41
CS(=O)(=O)N(CC(=O)N1CCCCC1)Cc1ccc(Cl)cc1 | i | 6 | -17 | -6 | -3 | -1 | 4 | /
COc1cc(NC(=S)N2CCN(CCO)CC2)c(OC)cc1Cl | i | 28 | -15 | 2 | -2 | 0 | 6 | -18
CC(=O)Oc1ccc(C(=O)Nc2nccs2)cc1 | i | -4 | 4 | -9 | -1 | -1 | 2 | -18
COc1ccc(OC)c(Nc2nc(-c3sc(N)nc3C)cs2)c1 | i | 18 | 0 | -39 | 37 | 1 | 4 | /
Cc1cccc[n+]1CC(=O)c1ccc2c(c1)OCCO2 | i | 0 | -10 | -11 | -2 | 0 | 4 | /
O=C(NCC1CCCO1)c1nn2cccnc2c1Cl (configuration not stated) | i | -6 | -6 | / | -12 | 0 | 5 | -16
CCCOc1ccc(Cc2nn[nH]n2)cc1 | i | 10 | 1 | / | -5 | 4 | 0 | -23
O=C(NC1=NCCS1)c1ccc(Cl)c(S(=O)(=O)N2CCCC2)c1 | i | 2 | / | -1 | -2 | 0 | 0 | /
CC(C)c1nc(SCC(=O)Nc2cccc(S(N)(=O)=O)c2)n[nH]1 | i | 0 | / | / | -2 | 0 | 3 | -8
CCN(Cc1ccccc1)C(=O)c1cc2cc(OC)c(OC)cc2[nH]1 | i | 6 | / | 13 | -3 | -1 | 1 | -2
c1ccc2nc3c(nc2c1)CCc1nonc1-3 | i | 8 | -8 | -40 | 6 | -2 | 8 | -3
COc1ccc(OC)c(NC(=O)CSc2nnc(NC(=O)c3ccco3)s2)c1 | i | 7 | -10 | / | 4 | 2 | -1 | -16
CCOc1ccccc1OCC(=O)Nc1ccc(N2CCCCC2)cc1 | i | 0 | -4 | / | 2 | 2 | -6 | 3
CCN(CC)CCn1c(/N=C/c2cc(Br)ccc2O)nc2ccccc21 | i | -2 | 8 | -7 | -2 | 10 | 3 | 0
Cc1ccc2nc(Br)c3c(c2c1)OC(CBr)C3 (configuration not stated) | i | -12 | -25 | 10 | -6 | 0 | -3 | -8
O=C(Nc1ccncc1)c1ccc2ccccc2c1 | i | 6 | 1 | -38 | 1 | 1 | -18 | /
Cc1nn(S(=O)(=O)c2cccc([N+](=O)[O-])c2)c(C)c1Br | i | 0 | -19 | 1 | -8 | 4 | -2 | -11
Cc1nnsc1C(=O)Nc1cc(Cl)ccc1Cl | i | 1 | 6 | -165 | -4 | -2 | 0 | -15
CCOC(=O)CN(C(=O)CNC(=O)c1cccs1)C(C(=O)NC1CCCC1)c1ccncc1 (configuration not stated) | i | 6 | -2 | -28 | -4 | 3 | 4 | /
CCOc1ccc(S(=O)(=O)/N=C(\N)c2ccccc2)cc1 | i | 5 | 8 | 2 | -1 | -1 | -13 | /
CN(Cc1ccco1)C(=O)CC[C@H]1O[C@@H](n2ccc(=O)[nH]c2=O)[C@H](O)[C@@H]1O | / | / | / | 4 | / | 5 | 7 | -22
Cc1nc2ccccn2c1C(=O)C(=O)Nc1cc(F)ccc1F | i | -5 | -14 | 0 | 2 | 0 | 1 | /
Cc1ccc(-n2ncc3c(=O)n(Cc4ccccn4)cnc32)cc1C | i | -13 | -5 | -46 | 6 | 0 | 1 | /
FC(F)(F)C1CCCN(c2nsc3ccccc23)C1 (configuration not stated) | i | 3 | 2 | / | -4 | 0 | 3 | -26
CCCCCCN1C[C@H](O)[C@@H](n2cc(C3CC3)nn2)C[C@@H]1c1ccccc1 | / | / | / | -125 | / | -4 | 5 | -24
COc1cc(/C=C(\C#N)c2nnc(N3CCOCC3)n2-c2ccccc2)ccc1O | i | -8 | -7 | -21 | -13 | -6 | -3 | /
CCOC(=O)c1c(C)[nH]c(C(=O)COC(=O)/C=C/c2ccc(O)c(OC)c2)c1C | i | 36 | 3 | -6 | 7 | 4 | -4 | /
O=C(NCc1ccco1)c1ccc2c(c1)CCO2 | i | -2 | -1 | 4 | -6 | 3 | 3 | -16
O=C(CNC(=O)C1COc2ccccc2O1)Nc1cc(Cl)ccc1Cl (configuration not stated) | / | / | / | -3 | / | -1 | 2 | 0
Cc1ccnc(SCC(=O)Nc2sc3c(c2C#N)CCC(C(C)(C)C)C3)n1 (configuration not stated) | i | -9 | 5 | 8 | 0 | -1 | -9 | -2
O=C(Nc1ccc(F)c(F)c1)NC1CCCCC1 | i | -4 | -3 | 4 | 8 | -1 | 1 | -13
CCC1C(=O)N(c2nc(C)cc(C)n2)N=C1C (configuration not stated) | i | 2 | -9 | -20 | -7 | 2 | 2 | -9
CC(C)N(CCn1c(SCC(=O)N2CC(=O)Nc3ccccc32)nc2ccccc2c1=O)C(C)C | i | 3 | -11 | -7 | -4 | -2 | 0 | /
CC(=O)c1cccc(NC(=S)NNC(=O)c2ccc(C)c([N+](=O)[O-])c2)c1 | i | -7 | -6 | -5 | 12 | / | / | -25
Cc1cc(/C=N/n2cnnc2)c(O)c([N+](=O)[O-])c1 | i | 20 | -5 | -13 | 0 | 5 | 2 | -22
Cn1nnc(NC(=S)NC(=O)c2cc3ccccc3o2)n1 | i | 12 | -8 | 0 | -5 | 2 | 1 | -35
O=C(Cc1ccccc1)NCCc1c[nH]c2ccccc12 | i | -2 | -4 | 1 | -6 | 3 | 6 | -21
C/C(=N\N=C1\NC(=O)C(CC(=O)Nc2ccccc2F)S1)C1CCCCC1 (configuration not stated) | i | 2 | -4 | -9 | 6 | 0 | 2 | -21
CCOC(=O)c1cnc2c(OC)cccc2c1N1CCN(c2ccccn2)CC1 | i | -7 | -6 | 12 | -8 | 7 | -11 | -5
COc1ccc(C2CC(c3ccc(Br)cc3)=NN2C(=O)CSC2=NCCS2)cc1 (configuration not stated) | i | -6 | 21 | -5 | 2 | -5 | -6 | /
OC(CNC1Cc2ccccc2C1)c1ccccc1 (configuration not stated) | i | -3 | -19 | / | 11 | 3 | 7 | -11
CC(C)Oc1ccc(CC2CC(=O)NC2=O)cc1 (configuration not stated) | i | -3 | / | -20 | -3 | 1 | 6 | -14
O=C(Nc1ccc2c(c1)OCO2)N1CCN(c2ccc(F)cc2)CC1 | i | -6 | -10 | -8 | 6 | 2 | 1 | /
CCc1ccnc(NC(=O)Nc2ccc(OCc3ccccc3)cc2)c1 | i | -6 | 17 | / | -3 | 4 | 5 | -7
Cc1ccc(C(=O)Cn2nnc3ccccc32)cc1[N+](=O)[O-] | i | 0 | -12 | -10 | 1 | 1 | 4 | -11
CCCCCSc1nc2c(c(=O)[nH]c(=O)n2C)n1C | i | -9 | -8 | -144 | 0 | 3 | 0 | 8
CCOC(=O)Cc1csc(NC(=O)c2ccc(S(=O)(=O)N(CCOC)CCOC)cc2)n1 | i | 3 | -16 | 3 | -7 | / | / | /
COc1cccc(CNCc2cccnc2)c1OCc1ccccc1 | i | 12 | -5 | -18 | -5 | -5 | -4 | -12

(further entries)
SMILES | Rce1 inhib | PABP FP inh | CSC inhib | Env fusion inh | eIF4H FP inh | MT1-MMP act inh | MT1-MMP act inh RFP | UUG fidelity
CC(C)NC(=O)COc1ncnc2sccc12 | i | 9 | 1 | -14 | -4 | 3 | 7 | -28
O=C(Nc1cccnc1)c1ccc(-c2ccc(Cl)cc2)o1 | i | -6 | 7 | -3 | 10 | 4 | 5 | /
CS(=O)(=O)c1ccc(Cl)c(NC(=O)COC(=O)CCCN2C(=O)c3cccc4cccc(c34)C2=O)c1 | i | / | -12 | -26 | / | 1 | 0 | -2
CC(Oc1ccccc1)C(=O)N=C1SC2CS(=O)(=O)CC2N1Cc1ccc(F)cc1 (configuration not stated) | i | -5 | -16 | 31 | -5 | 3 | 2 | 13
COc1ccc(Cl)cc1C(=O)CSc1nnnn1C1CCCC1 | / | -6 | -2 | / | -11 | 0 | -4 | -10
O=C(N/N=C/c1ccc([N+](=O)[O-])s1)c1ccncc1 | i | -12 | 9 | / | 43 | -3 | -6 | 21
O=S(=O)(Nc1ncnc2sc3c(c12)CCC3)c1ccc2ccccc2c1 | / | 15 | / | / | 0 | -3 | -9 | 0
COc1ccc(-c2cc(C(=O)N3CCCCC3)no2)cc1OC | i | -16 | -11 | / | -8 | 4 | 2 | -9
Cc1cnc(C(=O)OCc2ccc(Br)cc2F)cn1 | i | -10 | -8 | -2 | -4 | 1 | 3 | -4
CN1C[C@@H]2[C@@H]3C(=O)N(C)C(=O)[C@@H]3[C@](C)(C1=O)N2C(=O)c1ccc(Cl)cc1 | / | / | / | 2 | / | 9 | 3 | 7
COc1cc(C(C)=O)ccc1OCC(=O)N1CCCC1c1ccc2c(c1)OCCCO2 (configuration not stated) | / | / | / | 1 | / | -1 | 3 | -4
Cc1cccc(C)c1NC(=O)COC(=O)c1cccnc1 | i | 8 | 1 | 8 | 38 | -3 | 0 | -22
CC(C)(C)c1ccc(C(=O)Nc2nnc(C3=COCCO3)o2)cc1 | i | 10 | 41 | 10 | 7 | 0 | 2 | -39
O=C1OCCC1=COCCCCCOC=C1CCOC1=O | / | / | / | -32 | / | -1 | 1 | -19
CCN(CC)Cc1c(O)ccc2cc(-c3nc4ccccc4n3C)c(=O)oc12 | i | 14 | -8 | -31 | 11 | -13 | -1 | -4
CC1CCN(CCCCOc2ccc(Cl)cc2)CC1 | i | 9 | 17 | / | 12 | -1 | 6 | -3
Cn1c(-c2ccccc2)n[nH]c1=S | i | 5 | -4 | -37 | 12 | 6 | 3 | 3
CCC(CCC(=O)Nc1ccc(S(N)(=O)=O)cc1)C(=O)O (configuration not stated) | i | 3 | 6 | -12 | -9 | 0 | 0 | -16
Nc1n[nH]c(-c2ccc(F)cc2)n1 | i | 14 | -5 | 15 | -2 | -1 | 6 | -22
COc1ccc(OC)c(S(=O)(=O)N2CCCC(C(=O)NCc3ccncc3)C2)c1 (configuration not stated) | i | 3 | 8 | -2 | -14 | 3 | 4 | -12

Full records from above. Values in the order: Rce1 inhib | PABP FP inh | CSC inhib | Env fusion inh | eIF4H FP inh | MT1-MMP act inh | MT1-MMP act inh RFP | UUG fidelity
`COc1ccc(OC)c(S(=O)(=O)N2CCCC(C(=O)NCc3ccncc3)C2)c1` (configuration not stated) as listed: i | 3 | 8 | -2 | -14 | 3 | 4 | -12
`CCN(CC)Cc1c(O)ccc2cc(-c3nc4ccccc4n3C)c(=O)oc12` as listed: i | 14 | -8 | -31 | 11 | -13 | -1 | -4
`O=C1OCCC1=COCCCCCOC=C1CCOC1=O` as listed: / | / | / | -32 | / | -1 | 1 | -19
`CC(C)(C)c1ccc(C(=O)Nc2nnc(C3=COCCO3)o2)cc1` as listed: i | 10 | 41 | 10 | 7 | 0 | 2 | -39

Additional structures.
SMILES | Rce1 inhib | PABP FP inh | CSC inhib | Env fusion inh | eIF4H FP inh | MT1-MMP act inh | MT1-MMP act inh RFP | UUG fidelity
O=C(NCc1ccc2c(c1)OCO2)C1CCCCC1 | i | -3 | 3 | 2 | -6 | -1 | -2 | 4
Cc1ccc2c(c1)COc1c3ccc(C(=O)NCCO)cc3nn1-2 | i | 5 | 17 | -223 | -4 | 3 | -1 | -16
O=C(c1ccco1)N1CCN(C(=O)C2CC(c3ccc(F)cc3)=NO2)CC1 (configuration not stated) | i | 3 | 0 | 11 | 0 | 2 | 0 | -13
O=C(Cn1c(NCCO)nc2ccccc21)N1CCN(Cc2ccccc2)CC1 | i | 2 | -9 | -6 | -3 | -2 | 0 | -16
Cc1cccc(C(=O)Nc2nnc(-c3ccco3)o2)c1 | i | -12 | -20 | 8 | -5 | 12 | 7 | /
Cc1ccc(S(=O)(=O)N2CCN(C(=O)COC(=O)c3cnc(C)cn3)CC2)c(C)c1 | i | / | -6 | -1 | / | 3 | 6 | -19
CCOc1ccc(N(CC(=O)NCc2ccc(OC)cc2)S(C)(=O)=O)cc1 | i | -1 | 2 | -5 | 4 | 1 | 0 | 8

From PubChem BioAssay
